Screens deposited in PubChem by several laboratories.
PrP UTR inh – inhibition of PrP 5' UTR reporter expression | cell-based PrP 5' UTR mRNA reporter, plate reader | inhibition, % (concentration not given with the values) | 0.35% of 340,000 active | AID 488862, 2010;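 active means every replicate at 50% or more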;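 further: 0 = median of the neutral control wells; tested in H4 reporter cells; numbers are from one replicate; inactives centre near -14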
RN4220 kill – growth inhibition of S. aureus RN4220, primary screen, OD600 | 16 h | AID 1259311, 2017 | 0.33% of 330,000 active | inhibition, % (concentration not given with the values);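 active means z-score of -3 or lower and OD600 up to 0.18 on both plates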;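 further: plate controls were untreated cells for no effect and reference antibiotic for full effect; stock transfer was 100 nL into about 80 µL; one replicate is shown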
Bead autofluor – compound fluorescence in toxin protease inhibitor counterscreen; compound autofluorescence counterscreen, microsphere flow cytometry; active compounds read high; fluorescence intensity (test concentration not listed); 3.1% of 360,000 active;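 active means at least 3 SD above the mean of all compounds, about 16000 in these data; inconclusive means too few beads counted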;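 further: 100 nL of 1 mM stock went into each well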
Mtb hypoxia inh – PubChem AID 1159583. M. tuberculosis hypoxia-regulated fluorescent reporter, fluorescence. fluorescence inhibition, % (test concentration not listed). 0.1% of 300,000 active;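 active means 35 to 45% if threefold the growth effect, above 45% if 1.5-fold the growth effect; inactive means the rest, general growth blockers included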;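 further: wells of about 50 µL received 100 nL stock; 0% = vehicle wells and 100% = reference inhibitor wells; whole bacteria with a GFP reporter of the hypoxia response; strong numbers were not always called active; many hits fall short of the cut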
BJeLR viability – MLPCN primary cell-based screen for lethality selective to Ras in HRASV12 cells | inhibition, % (test concentration not listed) | BJeLR (HRASV12) viability, CellTiter-Glo ATP luminescence, 48 h; reference of the scale not given here | 0.17% of 300,000 active;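 active means replicate mean above 50%; inconclusive means above 50% but judged a plate artefact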;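 further: 50 nL library stock added to about 25 µL; numbers are from one replicate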
ugtP null kill – growth inhibition of ugtP-null S. aureus, primary screen, RN4220 ugtP deletion, OD600; 16 h; some inactives read as strong as hits; growth inhibition, % (no concentration beside the values); 0.54% of 330,000 active;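 active means z-score under -3 and OD600 up to 0.15 on both plates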;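 further: plate controls were untreated wells for no effect and antibiotic for full effect; wells of about 80 µL received 100 nL stock; the first replicate is given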
Mtb hypoxia inh growth – also measured in Mtb hypoxia inh; calls as there; growth inhibition, %; measured here: M. tuberculosis growth (absorbance);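 0% = vehicle and 100% = reference antibiotic; read after six days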
Numbers without * were called inactive; ? = inconclusive; / = not tested or not shown. Outcome played no part in choosing rows, and some 4% of all compounds hit somewhere here.

No. | smiles | Mtb hypoxia inh growth | ugtP null kill | BJeLR viability | Bead autofluor | PrP UTR inh | RN4220 kill | Mtb hypoxia inh
1 | COc1ccc(CCNC(=O)C(=O)NCC2CCCN2S(=O)(=O)c2ccccc2)cc1 (stereo not drawn) | -1 | 2 | -5 | 5313 | -7 | 2.0 | 6
2 | N#C/C(=C(/O)C(Cl)(Cl)Cl)c1nc2ccccc2[nH]1 | 1 | -8 | 1 | 4296 | -11 | 7.1 | -5
3 | O=c1ccc2cc(S(=O)(=O)NCCCc3ccccc3)ccc2[nH]1 | 1 | -6 | 3 | 3479 | -10 | 1.3 | 5
4 | O=C(Nc1ccccc1)Nc1ccc(Cl)nc1Cl | 2 | 38 | 12 | 4047 | -68 | 0.3 | 1
5 | CCOC(=O)C1=C(C)N=c2sc(=Cc3ccc(OC(C)=O)cc3)c(=O)n2C1/C=C/c1ccccc1 (stereo not drawn) | 7 | 13 | / | / | / | 48 | 3
6 | COc1ccc(NC(=S)N2CCC(c3ccc(C)cc3)C2)cc1 (stereo not drawn) | 8 | 11 | -14 | 3460 | -19 | 1.1 | 1
7 | Cc1cccc(C)c1N1CCN(C(=O)c2ccc3c(c2)OCO3)CC1 | 7 | 9 | -4 | 4690 | -13 | 1.9 | 17
8 | CC1CC(Nc2ccccc2)=NC1(C)C (stereo not drawn) | 7 | 5 | -12 | 2503 | -11 | 3.4 | 5
9 | CN(C(=O)CSc1nc2ccccc2[nH]1)C1CCS(=O)(=O)C1 (stereo not drawn) | 2 | 0 | / | 7727 | -27 | 2.8 | 13
10 | O=C(O)C1=CC2c3ccccc3C1c1ccccc12 | 1 | 0 | 9 | 4084 | -8 | -3.6 | 2
11 | C[C@@H]1C=C[C@](Cc2ccccc2)(C(=O)NCC2CC2)N1C(=O)c1ccccc1 | / | / | -6 | 4062 | -31 | / | /
12 | CCOc1ccccc1C(=O)NC1CCN(CC(=O)Nc2cc(OC)ccc2OC)CC1 | -6 | 2 | -6 | / | -9 | -0.3 | 6
13 | O=C(O)C1CC=CCC1C(=O)NCc1ccc(Cl)c(Cl)c1 (stereo not drawn) | 2 | -1 | -6 | 3209 | -13 | 8.2 | 8
14 | S=C1NC2(CCCCC2)NN1c1ccccc1 | 4 | 10 | -12 | 3914 | -14 | 6.1 | 6
15 | Cc1ccsc1C=NNC(=O)c1cccc(S(=O)(=O)Nc2ccccc2Cl)c1 | 7 | -5 | / | / | / | 10 | -8
16 | O=C(CNC(=O)c1ccco1)NCC(=O)OCc1ccc(C(=O)Oc2ccc(Cl)cc2)cc1 | 10 | -10 | 7 | 6001 | -19 | 3.4 | 0
17 | O=S(=O)(NCC(c1cccnc1)N1CCN(c2ccccc2)CC1)c1cc(F)ccc1F (stereo not drawn) | 6 | 9 | -3 | 6486 | -17 | 5.4 | 13
18 | CNC(=O)C1CCC(=O)N1Cc1ccccc1Cl (stereo not drawn) | -2 | 6 | 4 | 23165* | -15 | 5.4 | 15
19 | O=C(CSc1nnc(CCCN2C(=O)c3cccc4cccc(c34)C2=O)n1-c1ccccc1)N1CCN(CCO)CC1 | -2 | 9 | 9 | 2206 | -36 | 6.3 | -2
20 | COC(=O)c1sc(NC(=S)NC(=O)c2ccc(C)cc2)nc1C | 3 | 6 | 9 | / | -37 | 3.0 | 2
21 | CCO[C@H]1OC(C(=O)O)=C[C@@H](C2CCCCC2)[C@@H]1CCCO | / | / | 12 | 3601 | -40 | / | /
22 | C/C(=N\N=C(/N)SC1CC(=O)N(c2ccc(Br)cc2)C1=O)c1cccs1 (stereo not drawn) | / | / | -5 | 7508 | -83 | / | /
23 | O=C(NNc1ccc([N+](=O)[O-])cc1)c1ccccc1Cl | 24 | 7 | 6 | 3368 | -21 | 2.5 | 11
24 | Cc1cc(-c2cccs2)c2c(N)c(C(=O)c3ccc4c(c3)OCO4)sc2n1 | -8 | -25 | 3 | 2808 | -12 | 1.6 | 4
25 | COc1ccc(F)cc1S(=O)(=O)NCc1ccccc1 | / | / | 2 | 2087 | -1 | / | /
26 | C#Cc1ccc([C@H]2C=C(C(=O)NCc3nc4ccccc4[nH]3)O[C@@H](OCc3ccc(CO)cc3)C2)cc1 | / | / | -4 | 2960 | -8 | / | /
27 | CCOc1ccccc1Nc1cc(C)c2cccc(C)c2n1 | -11 | 67 | -2 | 3300 | 0 | -16 | 3
28 | O=C(COC(=O)c1cccc(Cl)c1Cl)NC1CCCC1 | 4 | 5 | 4 | 3076 | -16 | 4.1 | 14
29 | CN(C)CCCNc1ncnc2c1c(-c1ccccc1)cn2-c1ccccc1 | 5 | -17 | -3 | 5312 | -9 | -0.2 | 8
30 | CCOc1cc(C=NNC(=O)COc2nc(C)cc(COC)c2C#N)ccc1O | -4 | -2 | / | / | / | 2.2 | 7
31 | COc1ccc(N(Cc2cc3ccccc3[nH]c2=O)S(=O)(=O)c2ccc(OC)cc2)cc1 | / | / | 7 | 5727 | -13 | / | /
32 | CCC(=O)N1c2ccccc2NC2=C(C(=O)CC(c3ccco3)C2)C1c1ccco1 (stereo not drawn) | / | 1 | -7 | 2567 | -12 | 0.1 | /
33 | Cc1sc2nc(CSc3ccccc3)nc(NCCN(C)C)c2c1C | 0 | -4 | 0 | 1991 | -25 | -7.6 | -9
34 | Cc1cccnc1NC(=O)c1ccc(S(=O)(=O)NCc2ccco2)cc1 | -13 | 2 | -4 | ? | -7 | 2.6 | -6
35 | COc1ccccc1N1CCN(C(=O)C(=O)N/N=C/c2cccc(O)c2)CC1 | / | / | 4 | 11402 | -7 | / | /
36 | O=C(Cn1c(NCCO)nc2ccccc21)NCC1CCCO1 (stereo not drawn) | 7 | 4 | 5 | 4213 | -1 | 4.2 | 10
37 | CCn1ncc(CN2CCC(Oc3cc(C(=O)NC4CC4)ccc3OC)CC2)c1C | 0 | -8 | -2 | 6019 | -3 | -2.5 | -11
38 | COC(=O)c1cc(OC)c(OC)cc1NC(=O)Nc1ccc(OC)cc1 | / | -6 | 2 | 2691 | -10 | -0.6 | /
39 | COc1ccc(-n2ccnc2SCC(=O)NC2CCCC2)c(OC)c1 | 5 | 3 | 4 | 3792 | -3 | 2.5 | 7
40 | Cc1ccnc(N2CCCC(C(=O)NC3CC3)C2)n1 (stereo not drawn) | -4 | 6 | 0 | 5734 | 2 | 0.8 | -12
41 | CCN1CCN(c2nc(NCCO)c3ccccc3n2)CC1 | 5 | 7 | 4 | / | -15 | 2.4 | 9
42 | Cc1cc([N+](=O)[O-])nn1CC(=O)Nc1ccc(Cc2ccncc2)cc1 | -9 | 3 | -1 | 2592 | 1 | 0.1 | 1
43 | COc1ccc(NC(=O)Nc2cccnc2)c(OC)c1 | 5 | 3 | -4 | 4265 | 3 | -2.6 | 4
44 | CCNC(=S)N1CCN(CCN2C(=O)c3cccc4cccc(c34)C2=O)CC1 | 6 | -1 | 6 | 4552 | -18 | 7.2 | 3
45 | C=CCc1cc(Cl)ccc1OCCNCCCOC | 6 | -3 | 0 | 9350 | -17 | 2.8 | 15
46 | COc1cccc(NC(=O)CN(C)C(=O)COc2ccc3ccccc3c2)c1 | 11 | -7 | 2 | 2623 | -14 | -3.1 | -12
47 | CC(=O)Nc1cc(OC(C)=O)c2nonc2c1OC(C)=O | 6 | -3 | / | 11175 | -14 | 8.3 | 20
48 | N#C/C(=C\Nc1ccc2c(c1)OCCO2)C(=O)NCc1ccco1 | -9 | 7 | 5 | 3729 | -33 | 4.9 | 2
49 | CCN1CCN(c2nc3ccccn3c(=O)c2/C=C(\C#N)S(=O)(=O)c2ccccc2)CC1 | 1 | 14 | -3 | 4035 | -31 | 4.6 | 3
50 | O=C(NNC(=O)c1cc(-c2ccc(Br)cc2)nc2ccccc12)c1csc(N2CCOCC2)n1 | 0 | 0 | / | / | 4 | 6.5 | -7
51 | COc1cc(CCCN2C(=O)C(=O)NCC2CCCCN)cc(OC)c1OC (stereo not drawn) | 4 | 4 | / | / | / | 5.8 | 16
52 | CC1CCCN(C(=O)CN2CCN(C(=O)c3ccco3)CC2)C1 (stereo not drawn) | / | 14 | -4 | 4468 | -4 | 0.8 | /
53 | NC(=S)Nn1c(-c2ccccc2)nc2ccccc2c1=O | 2 | 4 | 1 | 1971 | 5 | 9.3 | 5
54 | O=C(CSc1nnc(-c2ccc(F)cc2)n1CC1CCCO1)NCc1ccco1 (stereo not drawn) | -4 | 4 | 0 | 5053 | -30 | -0.3 | 9
55 | O=C(c1ccccc1N(Cc1ccccc1)S(=O)(=O)c1ccccc1)N1CCOCC1 | -1 | 10 | -2 | 3700 | -15 | 2.3 | -1
56 | O=C(CSc1nnc(-c2ccc(Cl)cc2)n1Cc1ccco1)NCc1ccc2c(c1)OCO2 | 1 | -7 | 0 | 3438 | -16 | 3.9 | 9
57 | CCOC(=O)c1ccc(NC(=O)CC2SC(=NC)N(C)C2=O)cc1 (stereo not drawn) | 7 | -9 | 0 | 3164 | -15 | -13 | 3
58 | CCOC(=O)C1CCN(c2c(NCc3ccc(C(=O)NCCOC)cc3)c(=O)c2=O)CC1 | / | 1 | 3 | 4278 | -15 | 6.0 | /
59 | Cc1cc(C)c(S(C)(=O)=O)c(NN)n1 | -6 | 9 | 1 | 2004 | -10 | 2.8 | 19
60 | Cc1cc(C)c(C)c(S(=O)(=O)N2CCC(C(=O)NC3=NCCS3)CC2)c1C | -6 | 8 | / | 6211 | -14 | 3.5 | 2

Further structures
No. | smiles | Mtb hypoxia inh growth | ugtP null kill | BJeLR viability | Bead autofluor | PrP UTR inh | RN4220 kill | Mtb hypoxia inh
61 | Cn1nc(C(F)(F)F)c(-c2ccc(F)cc2)c1NC(=O)CSCC(=O)O | 7 | 10 | -2 | 4373 | -5 | 3.8 | -3
62 | O=C(Cn1cnc2ccccc21)N/N=C/c1ccc([N+](=O)[O-])cc1 | / | / | -9 | 2633 | 8 | / | /
63 | NC(=S)c1c(Cl)cc(C(F)(F)F)cc1Cl | -5 | 10 | -1 | 4341 | -24 | 2.1 | -5
64 | CCOC(=O)C1CCC(=O)C1 (stereo not drawn) | 10 | 1 | / | 3998 | -32 | 2.5 | 19
65 | COc1ccc(-n2nc(C(=O)NCC(=O)NC3CCCCCC3)c3ccccc3c2=O)c(OC)c1 | 10 | 4 | -9 | 3911 | -25 | 4.5 | 4
66 | CCOc1nc(-c2ccc(C)cc2)ccc1-c1noc(-c2cccnc2)n1 | -9 | 0 | -2 | / | / | 9.8 | -2
67 | O=C1C(=Cc2cccnc2)Cc2ccc(Cl)cc21 | 2 | -2 | / | / | / | 0.3 | 2
68 | O=C(OCC(=O)N1CCOCC1)c1ccc(O)cc1 | 0 | 0 | -5 | 6011 | -22 | 4.5 | 5
69 | CC(=O)Nc1cccc(NC(=O)c2sc3ncn(CC(=O)N4CCCCC4)c(=O)c3c2C)c1 | / | -6 | / | 2264 | -12 | 3.1 | /
70 | CN1CCN(C(=S)c2cn(CCOc3ccccc3)c3ccccc23)CC1 | 6 | -8 | 0 | 4347 | -32 | 3.0 | -6
71 | NNC(=O)c1ccc(Cl)cc1Cl | -3 | 9 | 6 | 2597 | -31 | -0.3 | -2
72 | Cn1c(O)c(C=NCCN2CCN(C(=O)c3ccccc3)CC2)c(=O)n(C)c1=O | 8 | -3 | 8 | 3132 | -10 | -9.9 | -4
73 | COc1ccc(/C=C2\N=C3CCCN3C2=O)cc1 | 9 | -7 | 0 | 3515 | -37 | 0.0 | -3
74 | Cc1nc(SCC(N)=O)[nH]c(=O)c1Cc1ccc(OC(C)C)cc1 | / | 10 | 2 | 4883 | -13 | 10 | /
75 | Cc1ccc(C(=O)NC(=S)Nc2ccc(N3CCOCC3)cc2)cc1 | / | 73 | 2 | 2789 | -13 | -4.6 | /
76 | CNc1ncnc2c1ncn2-c1ccccc1 | 14 | 4 | / | 3620 | -14 | 1.1 | 20
77 | O=C(CCC(=O)Nc1ccc(Cl)cc1Cl)NNC(=O)[C@@H]1CCCC[C@@H]1C(=O)O | 6 | -2 | / | 2524 | -2 | -0.1 | 5

Complete entries, looked up by structure. Values in the order: Mtb hypoxia inh growth, ugtP null kill, BJeLR viability, Bead autofluor, PrP UTR inh, RN4220 kill, Mtb hypoxia inh
COc1ccc(CCNC(=O)C(=O)NCC2CCCN2S(=O)(=O)c2ccccc2)cc1 (stereo not drawn) is listed with -1, 2, -5, 5313, -7, 2.0, 6
O=C(c1ccccc1N(Cc1ccccc1)S(=O)(=O)c1ccccc1)N1CCOCC1 is listed with -1, 10, -2, 3700, -15, 2.3, -1
CCOC(=O)C1CCC(=O)C1 (stereo not drawn) is listed with 10, 1, /, 3998, -32, 2.5, 19
